Screens as filed in PubChem BioAssay.
KCNQ2 enhance: KCNQ2 (rat) channel potentiation. CHO-K1 KCNQ2, FluxOR thallium flux fluorescence; stronger effect = higher value. O88943. 310,000 tested, 0.54% active. B-score at 10 µM;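 active = fluorescence ratio B-score at least 3 SD of library B-scores, with initial fluorescence B-score within 3 SD, cut at about 5.3 in these data; same plate scores as AID 2156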;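 also: B-score of peak minus minimum over baseline fluorescence ratio after K+ and Tl+ stimulus; positive B-score means potentiation of KCNQ2 with more thallium influx and brighter signal; only the inactives scoring about 0 or higher are listed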
Target sequence (O88943 whole entry, looked up): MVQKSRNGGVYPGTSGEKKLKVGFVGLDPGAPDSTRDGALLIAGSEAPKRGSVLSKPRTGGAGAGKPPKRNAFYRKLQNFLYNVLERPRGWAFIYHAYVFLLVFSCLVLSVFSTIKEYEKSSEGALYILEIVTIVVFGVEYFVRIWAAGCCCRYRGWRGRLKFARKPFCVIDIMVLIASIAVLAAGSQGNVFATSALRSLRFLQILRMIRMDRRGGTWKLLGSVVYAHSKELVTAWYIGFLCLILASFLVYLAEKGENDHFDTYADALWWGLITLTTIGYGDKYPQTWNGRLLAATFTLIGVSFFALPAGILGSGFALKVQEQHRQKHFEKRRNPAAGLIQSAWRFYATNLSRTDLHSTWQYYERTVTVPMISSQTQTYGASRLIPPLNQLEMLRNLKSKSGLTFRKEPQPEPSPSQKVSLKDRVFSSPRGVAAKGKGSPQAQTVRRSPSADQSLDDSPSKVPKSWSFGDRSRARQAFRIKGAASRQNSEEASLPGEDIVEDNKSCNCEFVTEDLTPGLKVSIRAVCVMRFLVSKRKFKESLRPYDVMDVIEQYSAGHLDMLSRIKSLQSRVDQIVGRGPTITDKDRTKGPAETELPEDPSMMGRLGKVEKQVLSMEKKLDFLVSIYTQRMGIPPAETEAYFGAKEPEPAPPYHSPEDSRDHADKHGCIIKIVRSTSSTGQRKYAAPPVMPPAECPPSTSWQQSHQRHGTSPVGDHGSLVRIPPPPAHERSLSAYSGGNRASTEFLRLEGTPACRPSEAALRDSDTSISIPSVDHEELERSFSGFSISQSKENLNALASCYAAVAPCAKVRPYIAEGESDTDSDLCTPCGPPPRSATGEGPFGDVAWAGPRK
KCNQ2 enhance baseline: further read-out of KCNQ2 enhance, marked with its call; B-score; compound at 10 µM; measured here: initial fluorescence intensity artifact check;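 brightness before thallium and not channel activity; 0 = typical well and far values either way flag optical interference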
Starred values were filed as active, the others as inactive.

Compound	KCNQ2 enhance	KCNQ2 enhance baseline
Cn1c(SCc2cccc(F)c2)nnc1-c1ccccn1	0.23	-0.3
O=C(O)c1cc(-c2ccncc2)nc2ccc(S(=O)(=O)N3CCOCC3)cc12	1	1.3
CCN(CC(=O)Nc1c(F)cccc1F)C(=O)CNC(=O)c1cccs1	2.3	-0.45
O=C(Cn1cc(C(=O)c2ccco2)c2ccccc21)NC1CC1	0.06	0.08
COc1cccc(Cn2nc(C(=O)O)c3ccccc3c2=O)c1	1	0.46
C=CCSc1nnc(-c2c[nH]c3ccccc23)n1CCOC	1.2	-1.1
O=C(COc1ccc(Cl)cc1)NCc1nnc(SCC(=O)Nc2ccccc2F)o1	0.86	1.8
c1ccc(CNc2cncnc2)cc1	0.97	-0.37
CC1CC(=O)Nc2ccccc2N1S(=O)(=O)c1cccc(Cl)c1 (stereo not given)	0.04	-0.08
COc1ccc(NC(=O)c2cncc(Br)c2)cc1S(=O)(=O)N1CCCCC1	1.7	-0.49
COc1ccccc1COC(=O)Nc1c(C)nn(C)c1Cl	0.01	-0.82
COCCNC(=S)Nc1ccc2nsnc2c1	0.28	-0.01
Cc1cc(C)cc(-n2ncc3c2CCCC3NC(=O)c2cc(C)n(C)n2)c1 (stereo not given)	0.28	0.02
CCN(CC)c1ccc(N=CN2CCOCC2)cc1	1.3	0.61
CCC(=O)Nc1ccc2c(c1)ncn2CCc1ccccc1	0.09	-0.01
CN(C)S(=O)(=O)c1ccc2oc(SCC(N)=O)nc2c1	0.81	0.22
Cc1ccc2[nH]c3c(=O)n(Cc4ccco4)cnc3c2c1	0.68	-0.13
C=CCOc1ccc(C(=O)Nc2ccc3c(c2)n(C)c(=O)n3C)cc1	0.63	-2
Cc1cnc(C(=O)Nc2ccccc2-c2nnn(CC(=O)NC3CCCC3)n2)cn1	0.13	-1.2
CCC(C)N1C(=O)c2ccccc2C1C(=O)NC1CCCCCC1 (stereo not given)	0.86	1.2
COc1ccc(C)cc1NC(=O)CCC(=O)Nc1ccc2nc(N3CCN(C)CC3)cc(C)c2c1	0.03	0.65
CCCc1cc(=O)[nH]c(=S)[nH]1	0.57	0.01
CCC(CC)NC(=O)Nc1ccc(F)cc1F	0.67	-1.4
CCOC(=O)c1ccc(NC(=O)COc2ccc(CNC3CCCCC3)cc2OC)cc1	0.47	0.02
Cc1cc(NC(=O)CCCn2nc([N+](=O)[O-])cc2C)no1	1.8	0.21
COc1ccccc1OCCCCCCN1CCN(C)CC1	1.2	-2.1
CCc1nnc(NC(=O)CSc2nnc(CCc3nc4ccccc4[nH]3)n2C)s1	0.02	0.74
CCOC(=O)C1CCN(C(=O)COC(=O)C2CCN(S(=O)(=O)c3ccc4c(c3)OCCO4)CC2)CC1	1.5	-1.2
Cc1cc(Nc2ccc(N3CCOCC3)cc2)c2cccc(C)c2n1	1.5	2.1
O=C(N/N=C/c1c[nH]c2ccccc12)c1cccc(Cl)c1	0.26	0.93
CCOC(=O)CSCC(=O)Nc1cc(C)ccc1C	0.05	-0.5
COC(=O)c1ccc(/C=C2\Oc3ccccc3NC2=O)cc1	0.22	0.54
COc1ccc(NC(=O)CSc2nnc(-c3ccccc3)n2Cc2ccco2)cc1OC	0.14	-0.23
FC(F)(F)c1cccc(NCc2cn3cccnc3n2)c1	0.03	1
COc1ccc(CNC(=O)C2=CC(c3ccc(C)cc3)=NS(=O)(=O)N2C)cc1	1.5	1.6
CCCCn1c(N)c(N(Cc2ccccc2OC)C(=O)CC2OC(=O)c3ccccc32)c(=O)[nH]c1=O (stereo not given)	0.02	-1.4
COc1ccc(C(C#N)c2ccc(=O)[nH]n2)cc1 (stereo not given)	0.12	0.22
Cc1ccc(C(=O)Nc2ccccc2C(N)=O)o1	2.6	-0.56
CC(=O)c1coc2c1cc(O)c1ccccc12	0.03	0.38
Cc1ccc(CN2CCN(Cc3cn[nH]c3-c3ccccc3)CC2CCO)o1 (stereo not given)	0.92	2.6
Cc1sc2ncnc(NC(C)C(=O)O)c2c1C (stereo not given)	0.35	-0.73
Cc1cc2ccccc2nc1SCC(=O)NC1CCCC1	4.8	-0.4
O=C(c1ccccc1F)N1CCC(O)(c2cccnc2)CC1	0.69	1.1
COc1ccccc1N1CCN(c2nc(C)cc(=O)[nH]2)CC1	1.7	-0.18
Nc1nc(Nc2cccc(F)c2)nc(NCCO)c1[N+](=O)[O-]	2.4	0
Cc1coc2cc3oc(=O)c(CCC(=O)NCC(=O)O)c(C)c3cc12	0.69	0.01
CN(Cc1ccccc1)C(=O)CCS(=O)(=O)c1ccc2c(c1)oc(=O)n2C	0.94	-0.01
COc1cc(-n2c(N)c(C(=O)NCc3ccco3)c3nc4ccccc4nc32)cc(OC)c1OC	0.39	0.4
Cc1ccc(CNC(=O)c2cc3c(=O)n4ccccc4nc3n(CC3CCCO3)c2=N)cc1 (stereo not given)	1.9	1.1
Cc1ccccc1NC(=S)N(C)Cc1cn(C)c2ccccc12	1.2	-0.58
O=S(=O)(Nc1ccc(O)c2ccccc12)c1cccs1	1.2	-1.8
COc1ccc(-n2c(=O)c3c4c(sc3n(CC(N)=O)c2=O)CCCCC4)cc1	0.33	-0.85
CCOc1ccc(Cl)cc1CNCCCSc1nc(C)cc(C)n1	0.03	-0.56
C=CCn1c(COc2ccccc2F)nnc1SCC(=O)Nc1cc(C)on1	0.44	-0.23
CCCOc1ccc(Cc2c(O)nc(SC)[nH]c2=O)cc1	0.11	-0.12
C/C=C/c1ccc(OCC(=O)Nc2cc(S(=O)(=O)N3CCOCC3)ccc2N2CCCC2)c(OC)c1	0.19	-0.43
OCCCn1c(CCCNc2nc(-c3cccc(Br)c3)cs2)nc2cc(Cl)c(N3CCCCC3)cc21	3.9	0.81
COc1ccc(NC(=O)CN2CCC(NC(=O)c3ccc(OC)cc3)CC2)cc1	1.3	0.6
O=C(CNCC1CCCCC1)Nc1cccc(S(=O)(=O)N2CCOCC2)c1	0.04	0.97
CCC(=O)/C=C1\Sc2ccc(OC)cc2N1CC	0.09	-1.3

Next section:
Compound	KCNQ2 enhance	KCNQ2 enhance baseline
O=C(NC1CCCCC1)C(c1ccc(Cl)cc1)N(C(=O)c1cnccn1)c1ccc2c(c1)OCO2 (stereo not given)	0.19	0.04
CCOC(=O)N1CCN(C(=O)CS(=O)(=O)Cc2nc(-c3ccccc3C)oc2C)CC1	0.41	0.85
O=C(Cn1ccc([N+](=O)[O-])n1)NCc1cccnc1	0.62	-1.4
O=C(NCc1ccco1)c1cc(=O)c2ccccc2o1	1.1	0.12
O=C(N/N=C/c1cc(Br)cc(Br)c1O)c1cccc(N2CCCC2=O)c1	0.58	0.63
Cc1c(CC(=O)O)c(=O)oc2c(C)c3occ(-c4ccc(F)cc4)c3cc12	1.4	-0.29
O=C(COC(=O)C1CCN(C(=O)c2ccc(Cl)cc2)CC1)c1ccco1	1.6	-1.4
CC1CCN(C(=O)c2ccc(CNc3c(N4CCCC4)c(=O)c3=O)cc2)CC1	0.44	1.1
O=C(NCCN1CCOCC1)c1ccc(NS(=O)(=O)c2ccccc2)cc1	1.2	-0.93
O=C(NNS(=O)(=O)c1ccccc1C(F)(F)F)c1cc2ncc(C(F)(F)F)cc2s1	1.6	-0.33
CCOc1ccc(Cl)cc1CNCCNCCO	0.67	-0.73
Cc1cc(C(=O)COC(=O)C2=COCCO2)c(C)n1-c1cccc(F)c1	0.13	-1.7
CS/C(=N\S(=O)(=O)c1cccs1)Nc1ccc(N2CCOCC2)cc1	1.1	-1.2
CC(=O)c1cccc(NC(=O)N2CCCC2C(=O)NCc2ccc3c(c2)OCO3)c1 (stereo not given)	1.1	1
COc1ccc(OCCC(=O)OCC(=O)Nc2ccc(S(=O)(=O)N3CCOCC3)cc2)cc1	0.1	0.16
O=C(NC1CCCCC1)NC1CCN(S(=O)(=O)Cc2ccccc2)CC1	0.2	0.11
O=C(OC(C(=O)NC1CCCC1)c1cccnc1)C1=Cc2ccccc2OC1 (stereo not given)	0.25	0.1
Oc1ccc(Cl)cc1-c1cc(C(F)(F)C(F)F)nc(-c2ccccc2)n1	0.38	-0.49
CCC(=O)NCCNc1nc2cc(C)cc(C)c2cc1C#N	1.2	-1.1
O=C(Nc1nnc(-c2ccc(Cl)cc2)o1)C1=COCCO1	0.56	0.59
CC(Sc1ccc(Cl)cc1)C(=O)NCC(c1ccco1)N1CCCCC1 (stereo not given)	1.6	-0.83
CCCc1cc(=O)n2[nH]c(C(F)(F)F)nc2n1	0.19	-0.01
O=C(Nc1ccc2c(c1)C(=O)OC2)c1ccc(F)cc1F	0.43	-0.07
COc1ccc(OC)c(NC(=S)NCCN2CCOCC2)c1	0.97	-0.03
COc1ccc(N2CCN(CCCNC(=O)C3CCCN(S(=O)(=O)c4cnc[nH]4)C3)CC2)cc1 (stereo not given)	1.4	-0.96
COC(=O)c1cccc(NC(=O)CC2NCCNC2=O)c1 (stereo not given)	0.13	0.3
Cc1cc(C)c(S(=O)(=O)N2CCOC2CNC(=O)C(=O)NCc2ccccn2)c(C)c1 (stereo not given)	0.01	-1.1
N#Cc1c(NC(=O)c2ccco2)sc2c1CCC2	0.26	1.6
Cn1c(=O)c2c(-c3ccccc3)n(-n3cnnc3)cc2n(C)c1=O	0.17	-0.22
CC(Cc1n[nH]c(=S)n1N)c1ccccc1 (stereo not given)	0.24	-0.7
Cc1c(NC(=O)c2ccc(-c3ccccc3)cc2)cccc1C(=O)O	0.28	-0.66
Cc1cc(=O)oc2cc(OCC(=O)N3CCCc4ccccc43)ccc12	1.5	-1.6
O=C(CCCn1c(=O)c2cccn2c2cccnc21)NCCc1ccc(Cl)cc1	1.6	-0.68
CN1CCN(/C=N/c2sc3c(c2C#N)CCCCC3)CC1	2.3	-0.62
COc1ccc(NC(=O)c2cc(S(=O)(=O)N3CCOCC3)cs2)cc1	1.4	-2.1
CCC(C)(C(=O)NC1CCCCC1)N(Cc1cccs1)C(=O)c1ccc(=O)[nH]c1 (stereo not given)	1.1	-1
CCOc1ccc(CN2CCC(n3nccc3NC(=O)C3CC3)CC2)cc1CO	0.8	0.45
CCOc1ccc(CCNC(=O)C2CC(=O)N(C3CCCC3)C2)cc1OCC (stereo not given)	1.5	-1
CCOC(=O)Cn1c(S(=O)(=O)Cc2ccccc2)nc2ccccc21	0.3	-3
C=CCn1c(=O)c(C#N)cc2c(=O)n3ccccc3nc21	0.13	-0.27
O=C(COC(=O)c1ccccc1Br)Nc1ccc(F)cc1	0.99	2.9
CN(C)C(=O)c1nc2ccc(Cl)cn2c1CN1CCCC(OCc2cccnc2)C1 (stereo not given)	0.56	0.01
Cc1c(Br)c([N+](=O)[O-])nn1CC(=O)Nc1ccc(C(N)=O)cc1	0.01	-1.2
Nc1nc(-c2cc(-c3ccccc3)no2)cs1	1.1	1
CCN(CC)C(=O)C1CCN(CC2CC=CCC2)CC1 (stereo not given)	0.9	-0.42
O=C(NCc1ccc(F)cc1)c1cc2ccccc2o1	0.42	-1.4
COc1ccc(C(=O)CCNc2ccc(F)cc2)cc1	0.1	-2.1
CCC(NC(=O)c1ccc2nc(Cc3ccc(OC)cc3)oc2c1)c1ccncc1 (stereo not given)	0.44	-0.65
Cc1n[nH]c(=O)nc1NC(C)c1ccccc1 (stereo not given)	0.13	0.01
Cc1ccccc1NS(=O)(=O)c1ccc(NC(=O)c2nc3ncccn3n2)cc1	1.1	-0.25
CC(C)Cn1c(-c2csc3c2CCCC3)n[nH]c1=S	1.8	0.68
O=C(O)/C=C/C(=O)Nc1cccc2cccnc12	0.69	-0.08
O=C(NCc1ccc(Cl)cc1Cl)C1CCN(S(=O)(=O)c2ccc3c(c2)OCCCO3)CC1	0.39	-0.26
CC(C)(C)CN1CCC(Oc2cccc(C(=O)N3CCC[C@H]3CO)c2)CC1	0.51	-1.6
O=C(CN1CCC(NC(=O)C2CCCCC2)CC1)Nc1cccc(F)c1	0.24	-0.36
CCCNC(=O)C(=O)c1cccn1-c1ccsc1C(=O)OC	0.48	-0.2
CC(/C=N/N1CCN(c2ccc(C)cc2)CC1)=C\c1ccccc1	0.29	-0.86
COc1ccc(-c2cc(=O)n(CCC#N)[nH]2)cc1	0.02	0.28
CC(=O)c1cc(CN2CCC(n3nccc3NC(=O)c3ccccc3Cl)CC2)cs1	0.67	-0.54
CN(C)c1nc(Oc2ccc(C(=O)OCC(=O)Nc3ccccc3)cc2)nc(N(C)C)n1	1.1	-0.28
O=C(NNC(=O)C1CC(c2cccs2)=NO1)Nc1ccccc1 (stereo not given)	0.96	-2

This is a subset. The share of hits here may be higher or lower than overall.
